Autofluor counter: compound fluorescence in toxin protease inhibitor counterscreen. compound autofluorescence counterscreen, microsphere flow cytometry; stronger effect = higher value. fluorescence intensity (no concentration beside the values). 360,000 tested, 3.1% active. AID 624483;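 active = at least 3 SD above the mean of all compounds, about 16000 in these data; inconclusive = too few beads counted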;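 also: 100 nL of 1 mM stock went into each well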
PrP 5UTR inh: suppresses PrP 5' UTR mRNA reporter expression; cell-based PrP 5' UTR mRNA reporter, plate reader; inhibition, % (test concentration not listed); 340,000 tested, 0.35% active;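 active = every replicate at 50% or more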;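 also: 0 = median of the neutral control wells; tested in H4 reporter cells; numbers are from one replicate; inactives centre near -14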
ugtP null kill: compounds lethal to S. aureus RN4220 ugtP deletion mutant | OD600 growth, 16 h; some inactives read as strong as hits | 330,000 tested, 0.54% active | AID 1259309 | growth inhibition, % (no concentration beside the values);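 active = z-score under -3 and OD600 up to 0.15 on both plates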;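 also: plate controls were untreated wells for no effect and antibiotic for full effect; wells of about 80 µL received 100 nL stock; the first replicate is given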
Sa RN4220 lethal: S. aureus RN4220 growth inhibition. OD600, 16 h. inhibition, % (concentration not given with the values). 330,000 tested, 0.33% active. AID 1259311;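 active = z-score of -3 or lower and OD600 up to 0.18 on both plates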;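 also: plate controls were untreated cells for no effect and reference antibiotic for full effect; stock transfer was 100 nL into about 80 µL; one replicate is shown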
BJeLR lethal: kills HRASV12-expressing BJeLR cells; 300,000 tested, 0.17% active; inhibition, % (test concentration not listed); BJeLR (HRASV12) viability, CellTiter-Glo ATP luminescence, 48 h; reference of the scale not given here;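 active = replicate mean above 50%; inconclusive = above 50% but judged a plate artefact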;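 also: 50 nL library stock added to about 25 µL; numbers are from one replicate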
Mtb hypoxia rep: inhibitors of hypoxia-regulated fluorescent reporter in Mycobacterium tuberculosis; 300,000 tested, 0.1% active; AID 1159583; fluorescence inhibition, % (test concentration not listed); M. tuberculosis hypoxia-regulated fluorescent reporter, fluorescence;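 active = 35 to 45% if threefold the growth effect, above 45% if 1.5-fold the growth effect; inactive = the rest, general growth blockers included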;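 also: wells of about 50 µL received 100 nL stock; 0% = vehicle wells and 100% = reference inhibitor wells; whole bacteria with a GFP reporter of the hypoxia response; strong numbers were not always called active; many hits fall short of the cut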
Mtb hypoxia rep growth: second read-out of Mtb hypoxia rep, no call of its own (marks repeat the call); growth inhibition, %; measured here: M. tuberculosis growth (absorbance);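 0% = vehicle and 100% = reference antibiotic; read after six days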
* marks the source's active call; other numbers are inactive results; ? = inconclusive; . = not tested or not shown.

Screens in order – Autofluor counter	PrP 5UTR inh	ugtP null kill	Sa RN4220 lethal	BJeLR lethal	Mtb hypoxia rep	Mtb hypoxia rep growth
- CC1CN(C(C)CO)C(=O)c2cccc(NC(=O)C3CCCCC3)c2OC1CN(C)Cc1ccc(C(=O)Nc2ccccc2N)cc1 (configuration not stated)
→ .	.	8	3.7	.	17	10
- Cc1cc(C)nc(NS(=O)(=O)c2ccc(NC(=O)Cc3ccccc3)cc2)n1
→ 4232	-29	5	-1.1	1	-8	5
- Cc1ccc(F)cc1NC(=O)C1CC(=O)N(CCc2ccccc2)C1 (configuration not stated)
→ 3227	-19	5	6.3	-1	7	3
- COc1cc(/C=C/C(=O)OCC(=O)c2ccc(S(=O)(=O)N3CCCCC3)cc2)cc(OC)c1OC
→ 6069	7	1	1.0	.	-3	5
- C/C(=C\C=C\c1ccccc1)C(=O)c1c(C)cc(C)[nH]c1=O
→ 2522	-25	-6	0.7	-4	-14	-10
- CCOc1ccccc1CNC(=O)CCCn1ccc2cc(S(=O)(=O)N3CCCC3)ccc21
→ 5415	-12	-11	-2.8	9	3	4
- Cc1ccn2cc(-c3cccc([N+](=O)[O-])c3)nc2c1
→ 3176	-37	5	5.4	.	1	-6
- O=c1c2c3c(sc2nc(NCCOCCO)n1Cc1ccco1)CCCCC3
→ 5043	-14	.	.	0	.	.
- CCCNC(=O)NC(=O)CSc1nnc(-c2c[nH]c3ccccc23)o1
→ 5860	-17	3	-3.2	5	3	5
- C=CCN(c1ccc(Cl)cc1)S(=O)(=O)c1cccc(C(=O)OCC(=O)N(C)C)c1
→ 6643	-21	2	4.2	0	-1	6
- CN(C)N=Cc1ccc(Sc2ccc([N+](=O)[O-])cc2[N+](=O)[O-])o1
→ .	.	13	2.5	.	-10	13
- CCCCC(CC)CNC(=O)CN(C)S(=O)(=O)c1cccc2nsnc12 (configuration not stated)
→ 4114	-16	2	-2.4	-1	3	0
- Cn1c(=NNC(=O)c2ccccc2F)sc2ccccc21
→ .	.	-1	4.2	.	-5	14
- O=C1CSC(c2ccccc2F)N1c1ccccc1F (configuration not stated)
→ 3373	-32	4	4.5	1	10	6
- Cc1ccccc1CN1CCCC(C(=O)N2CCCCC2)C1 (configuration not stated)
→ 3111	-1	10	2.5	-1	14	-6
- CCOC(=O)c1c(C)[nH]c(C(=O)OCC(=O)N(CC)c2c(N)n(Cc3ccccc3)c(=O)[nH]c2=O)c1C
→ 2918	-16	5	0.2	.	4	0
- COCCCN1C(=O)C(=O)/C(=C(/O)c2ccc(S(=O)(=O)N3CCCCC3)cc2)C1c1ccc(OC)cc1 (configuration not stated)
→ 5284	-16	10	3.4	-9	5	-3
- O=C(CN1C(=O)c2ccccc2S1(=O)=O)N1CCN(Cc2ccc3c(c2)OCO3)CC1
→ 4825	-3	3	-5.7	13	-13	-8
- COc1cccc(Nc2n[nH]c(=S)s2)c1
→ 2520	-13	-2	12	4	6	3
- Cc1noc(C)c1COc1ccc(CC(=O)NCc2ccccc2)cc1
→ 3342	19	-2	2.2	8	3	1
- CCOC(=O)C(NCCc1ccccc1F)(NC(C)=O)C(F)(F)F (configuration not stated)
→ 2391	-8	1	14	-3	3	3
- CC1CCN(c2cc(N(C)CCO)c([N+](=O)[O-])c3nonc23)CC1
→ 2340	-18	8	3.6	4	22	-2
- CCn1c(SCC(=O)NC(C)(C)C)nc(O)cc1=O
→ 8799	-18	-1	2.0	2	-1	-1
- CCOc1ccc(C2NC(=O)C(C#N)=C(S)N2c2cccc(C)c2)cc1OC (configuration not stated)
→ 4233	-2	3	2.2	8	5	-3
- COc1ccc(N2CCN(C(CNC(=O)c3cccc(Cl)c3)c3cccnc3)CC2)cc1 (configuration not stated)
→ 3536	-32	0	-3.9	-5	8	16
- Cc1cc2occ(CC(=O)NC3(C)CCS(=O)(=O)C3)c2cc1C (configuration not stated)
→ 5148	-7	5	2.6	-22	4	-5
- C=CCOc1ccc(C2OC34CCCCC3C(C#N)(C#N)C2(C#N)C(=N)O4)cc1 (configuration not stated)
→ 3797	-34	5	1.3	13	0	-6
- COc1cc(C(=O)NCC(C)C)cc(OC)c1OC
→ 16687*	14	7	4.1	0	9	-2
- CCOCCn1c(CN2CCN(C(=O)c3ccco3)CC2)nc2c1c(=O)n(C)c(=O)n2C
→ 4837	-8	1	0.4	-3	-9	-9
- NC(=O)c1cc([N+](=O)[O-])ccc1NCc1ccc(C(=O)O)cc1
→ 3489	-15	5	2.0	.	6	8

Full records, looked up by structure. Order of values: Autofluor counter | PrP 5UTR inh | ugtP null kill | Sa RN4220 lethal | BJeLR lethal | Mtb hypoxia rep | Mtb hypoxia rep growth
`CCOC(=O)c1c(C)[nH]c(C(=O)OCC(=O)N(CC)c2c(N)n(Cc3ccccc3)c(=O)[nH]c2=O)c1C` is entered as 2918 | -16 | 5 | 0.2 | . | 4 | 0
`CCOc1ccccc1CNC(=O)CCCn1ccc2cc(S(=O)(=O)N3CCCC3)ccc21` is entered as 5415 | -12 | -11 | -2.8 | 9 | 3 | 4
`CCCCC(CC)CNC(=O)CN(C)S(=O)(=O)c1cccc2nsnc12` (configuration not stated) is entered as 4114 | -16 | 2 | -2.4 | -1 | 3 | 0
`Cc1ccccc1CN1CCCC(C(=O)N2CCCCC2)C1` (configuration not stated) is entered as 3111 | -1 | 10 | 2.5 | -1 | 14 | -6

Exported bar-delimited: part of the list above
compound | Autofluor counter | PrP 5UTR inh | ugtP null kill | Sa RN4220 lethal | BJeLR lethal | Mtb hypoxia rep | Mtb hypoxia rep growth
O=C(CN1C(=O)c2ccccc2S1(=O)=O)N1CCN(Cc2ccc3c(c2)OCO3)CC1 | 4825 | -3 | 3 | -5.7 | 13 | -13 | -8
CCOc1ccc(C2NC(=O)C(C#N)=C(S)N2c2cccc(C)c2)cc1OC (configuration not stated) | 4233 | -2 | 3 | 2.2 | 8 | 5 | -3
Cc1cc2occ(CC(=O)NC3(C)CCS(=O)(=O)C3)c2cc1C (configuration not stated) | 5148 | -7 | 5 | 2.6 | -22 | 4 | -5

Following part
Screens in order – Autofluor counter	PrP 5UTR inh	ugtP null kill	Sa RN4220 lethal	BJeLR lethal	Mtb hypoxia rep	Mtb hypoxia rep growth
- Cc1nn(Cc2ccccc2)c(Cl)c1C(=O)NCCc1ccc(Cl)cc1
→ 2634	-33	-6	-3.2	2	-1	7
- O=C(CO/N=C/c1ccccc1OC(F)F)N1CCc2ccccc21
→ 2729	-31	.	.	-4	.	.
- Cc1nccn1CC(=O)N/N=C/c1c[nH]c2ccccc12
→ ?	-18	.	.	-3	.	.
- N#CC(C#N)C(c1ccsc1)c1c(-c2ccccc2)[nH][nH]c1=O (configuration not stated)
→ 2954	-21	0	8.4	2	8	9
- c1ccc2c(c1)CCCN2Cc1nnnn1C1CCCC1
→ 9530	-29	-5	6.4	4	16	20
- COc1ccc(OC)c(NC(=O)[C@H]2CC=CC[C@H]2C(=O)O)c1
→ 8610	-2	-1	6.8	1	13	15
- CCN(CC)c1ccc(C=NNC(=O)OC(C)(C)C)cc1
→ .	.	3	4.1	.	4	8
- COc1ccc(Cl)cc1NC(=S)NC1CCCC1
→ 3624	1	-3	3.0	-1	-9	-4
- CN(CC(=O)Nc1ccc(Cl)c(C(F)(F)F)c1)Cc1cc(=O)n2ccsc2n1
→ 4858	-14	8	5.8	-15	13	4
- COc1ccc(Nc2nc(S(=O)(=O)c3ccc(C)cc3)c(Cl)s2)cc1
→ 2453	-15	-8	-4.3	6	-8	8
- CSCCC(NC(=O)c1ccc([N+](=O)[O-])cc1Cl)C(=O)OCC(=O)NCCCc1ccccc1 (configuration not stated)
→ 2182	-2	-2	-0.1	-3	.	.
- NC(=NC1CCCCC1)NS(=O)(=O)c1ccccc1
→ 3450	-9	21	2.0	-5	10	9
- CC(NCC1COc2ccccc2O1)C1COc2ccccc2O1 (configuration not stated)
→ 3546	-5	.	.	1	.	.
- CCCCNC(=O)c1ccc(-n2c(=S)[nH]c3ccccc3c2=O)cc1
→ 4450	-17	7	25	-23	2	6
- CSCCC(NC(=O)c1ccc([N+](=O)[O-])cc1Cl)C(=O)OCC(=O)NCC(F)(F)F (configuration not stated)
→ 9542	-15	3	-0.2	13	1	-1
- COC(=O)c1cc2c(s1)-c1ccccc1CC2
→ 2303	-44	29	21	-2	.	.
- CN1CCN(c2cc(C(F)(F)F)nc(-c3ccccn3)n2)CC1
→ 4719	-3	8	3.3	0	-2	0
- OC1C2CN3CCN(C2)CC1(Cc1ccccc1)C3 (configuration not stated)
→ 3585	-7	-4	-14	19	-3	2
- CCCc1nc2nc(C)c(NS(=O)(=O)c3ccc(C4CCCCC4)cc3)c(=O)n2[nH]1
→ 4114	-16	23	7.9	-8	8	7
- N=C1C(c2nc(-c3ccc(Br)cc3)cs2)=C(O)CN1NC(=O)c1ccc([N+](=O)[O-])cc1
→ 4741	-6	-5	5.0	-4	-4	-8
- CC1(C)C[C@H]2C3=CCC4[C@@]5(C)CC[C@H](O)C(C)(C)C5CC[C@@]4(C)[C@]3(C)[C@@H](O)[C@@H](O)[C@@]2(CO)[C@@H](O)[C@@H]1O (some centres not stated)
→ 3782	7	-21	4.2	.	-1	16
- Cc1cc(C)c(S(=O)(=O)N2CCOC2CNC(=O)C(=O)NCCc2c[nH]c3ccccc23)c(C)c1 (configuration not stated)
→ 5864	-17	-11	-6.1	8	2	10
- COC(=O)c1ccc(CN2CCN(CC=C(C)C)C(CCO)C2)cc1 (configuration not stated)
→ 2691	0	18	6.3	11	10	0
- O=c1[nH]c2ccc(NC(=NS(=O)(=O)c3ccccc3)c3ccccc3)cc2[nH]1
→ .	.	14	-1.2	.	8	8
- CC1(C)C([N+](=O)[O-])C(c2ccc(Cl)cc2)NC(c2ccc(Cl)cc2)C1[N+](=O)[O-] (configuration not stated)
→ 2630	1	4	-11	0	2	5
- COCCCNC(=O)CC1C[C@H](C(=O)N2CCOCC2)[C@@]2(CCC3CCCC3)c3[nH]c4ccc(OC)cc4c3CCN2C1=O (some centres not stated)
→ 3792	-7	-2	5.2	.	-12	-7
- CCc1cc(-c2n[nH]c(=S)n2C(C)c2ccccc2)cs1 (configuration not stated)
→ 21656*	-15	6	6.0	2	8	5
- Cc1ccc(S(=O)(=O)N2CCC[C@H]2C(=O)Nc2ccc(F)cc2C)cc1
→ 3539	-5	-3	0.9	.	5	20
- CCC(C)N(C(=O)c1csnn1)C(C(=O)NC1CCCC1)c1c(F)cccc1Cl (configuration not stated)
→ 4707	-14	1	2.4	6	4	0
- CCC(=O)NC(=S)NNC(=O)c1ccc(NC(=O)c2ccccc2)cc1
→ 3357	-24	9	9.1	-3	6	13
- COC(=O)c1ccc(CN2C(=O)NC(c3ccccc3)(c3ccccc3)C2=O)o1
→ 3781	-10	-2	0.4	-4	-14	-10
- Cc1cccc(-c2cccc(NC(=O)C3CCCN(C(=O)c4cccnc4)C3)c2)c1 (configuration not stated)
→ 6067	-8	-4	-8.5	5	10	8
- CC(C)NC(=O)COc1coc(CN2CCN(C(=O)c3ccco3)CC2)cc1=O
→ 5649	-19	-3	0.7	4	5	-6
- O=C(Nc1ccc(Cl)cc1)NC1CCCCC1
→ 4672	-98	3	3.7	11	13	19
- CC1CCC(NC(=O)C2c3ccccc3C(=O)N2Cc2cccs2)CC1 (configuration not stated)
→ 7129	-21	6	6.5	2	13	-4
- CCOC(=O)c1c(C)n(C)c2ccc(OCCN(C)C)cc12
→ 2521	-10	12	13	-4	-2	1
